Dynein transport: blocks dynein driven cargo transport along microtubules; z-score, hits read low; 3617.4 mouse cells, GR-EGFP nuclear translocation imaging; test concentration mostly 20 µM; stimulated with dexamethasone, 1 µM; hits give low values; 220,000 tested, 0.47% active;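 active = plate z-score of nuclear minus cytoplasmic receptor signal below a set negative limit, without overly bright fluorescence or cell loss, cut at about -3.5 in these data, passing the limit was not always enough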;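 note: z-score of nuclear minus cytoplasmic ring GR-EGFP intensity difference per well; some compounds called inactive have numbers as strong as hits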
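Schedule: 48 h induction, then 1 h compound, then 30 min agonist, 37 °C. Buffer or medium: tetracycline-free induction medium containing charcoal-stripped FBS. Reagent: 1.0 µM final dexamethasone stimulus. Evaluation: nuclear versus cytoplasmic GR-EGFP signal, averaged per well. Signal: high-content fluorescence imaging after fixation.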
MT stabilize HCS: microtubule stabilizers in HeLa cells; HeLa tubulin immunostaining HCS, 24 h; share of cells brighter than vehicle mean+2SD; % tubulin-high responders, % at 10 µM; 200,000 tested, 0.83% active;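 active = plate Z-score above 3 for both tubulin-high and condensed-nucleus cell shares, with cell loss under 80%, at 10 µM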;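 note: anti alpha tubulin signal scored within the nucleus-defined area of each cell; some results filed as inactive read as strong as hits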
Lipid droplet: modulators of hepatic lipid droplet formation; AML12 mouse hepatocytes, oleate lipid droplets, BODIPY imaging; inhibition, % at 6.5 µM; 240,000 tested, 0.4% active; AID 1656;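 active = lipid droplet intensity inhibited by at least 50%, with more than 500 cells counted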
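Test system: AML12 mouse liver cells; schedule: overnight exposure; technique: high-content imaging of BODIPY-stained droplets and DAPI nuclei; read-out: % inhibition of corrected integrated BODIPY droplet signal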
TNAP activators: stimulation of alkaline phosphatase TNAP activity – biochemical, luminescent, no phosphate acceptor, uHTS, primary screen (AID 1001). 200,000 tested, 0.03% active. activation fold at 20 µM, or EC50 in µM where a hit was titrated. purified TNAP, luminescent activation assay, no phosphate acceptor; higher activation fold means a stronger effect; in the data active = activation fold from about 3, or a potency from the dose series; inactive = the rest, 99 in 100 with activation fold below about 1.6; note: many of its hits are not listed in these tables
T cell modulator: T cell immune modulators affecting CD8 T cell-vesicle binding. 330,000 tested, 0.068% active. AID 2052. 2C CD8+ T cell-vesicle binding, flow cytometry; hits give low values. calls only at 7 µM;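 active = response, share of CD8 T cells binding vesicles, and their 90th percentile fluorescence all below set limits, cut at about 80% in these data, passing the limit was not always enough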
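Read-out – percent CD8+ FL2 mean versus row control · System – murine 2C transgenic CD8+ T lymphocytes · Times – 1.5 h cell–vesicle binding at 37 °C, then 20 min icy labelling · Control set – naked vesicles low, QL9 vesicles with vehicle high · Detection – cytometric PE anti-B7-1 and Alexa647 anti-CD8 signals after 1% paraformaldehyde fixation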
Myeloid diff 2: myeloid differentiation induction | 360,000 tested, 1% active | calls only at 10 µM | ER-HoxA9 myeloid progenitors, lysozyme-GFP differentiation, flow cytometry;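 active = normalized GFP-positive differentiation at or above the plate's own cutoff, the solvent-only control mean plus 3 SD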;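 note: cells exposed to compound for four days before flow analysis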
Insulin prom up: MIN6 insulin promoter up-regulation; MIN6 insulin promoter-GFP reporter, high-content imaging; hits give high values; z-score at 5 µM; 190,000 tested, 0.3% active;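 active = z-score above 3 at 5 µM with at least 500 cells counted in the well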
Dynein transport cytoplasmic EGFP: also measured in Dynein transport; calls as there; z-score; measured here: cytoplasmic GR-EGFP intensity; hits give high values
Dynein transport nuclear GR-EGFP: second read-out of Dynein transport, no call of its own (marks repeat the call); z-score; measured here: nuclear GR-EGFP intensity;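 lower value marks the stronger effect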
Dynein transport cell count: also measured in Dynein transport; calls as there; z-score; measured here: cell count per field
Insulin prom up cell count: also measured in Insulin prom up; calls as there; cell count; measured here: cytotoxicity, nuclei count;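 total cells summed across four imaged fields per well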
Lipid droplet cells 6.5 µM: further read-out of Lipid droplet, marked with its call; cell count; measured here: cell count, cytotoxicity flag;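 cells counted across two imaged fields per well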
T cell modulator vesicle-bound %: further read-out of T cell modulator, marked with its call; double positive events, %; measured here: CD8+ vesicle-bound cell fraction;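 binding gate set so that unloaded-vesicle control wells show 10% double positive cells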
MT stabilize HCS Hoechst-high %: second read-out of MT stabilize HCS, no call of its own (marks repeat the call); % Hoechst-high responders; measured here: nuclear condensation Hoechst responders;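 share of cells brighter than vehicle mean plus two SD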
MT stabilize HCS cytotoxicity %: also measured in MT stabilize HCS; calls as there; toxicity, %; measured here: cytotoxicity by cell density;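 0% = mean cell density of plate MIN control wells and 100% = no cells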
Myeloid diff 2 GFP+ MAC1+ %: further read-out of Myeloid diff 2, marked with its call; GFP+ MAC1+ double positive, %; measured here: differentiation confirmed by MAC1 staining
* = called active by the depositor; i = inactive; . = no result given. The list is partial; rates above refer to the full screens.

SMILES	Dynein transport	Dynein transport cytoplasmic EGFP	Dynein transport nuclear GR-EGFP	Dynein transport cell count	MT stabilize HCS	MT stabilize HCS Hoechst-high %	MT stabilize HCS cytotoxicity %	Lipid droplet	TNAP activators	T cell modulator	T cell modulator vesicle-bound %	Myeloid diff 2	Myeloid diff 2 GFP+ MAC1+ %	Insulin prom up	Insulin prom up cell count	others
CC1CC(C)CN(Cc2nc(N)nc(Nc3ccc4ccccc4c3)n2)C1 (stereo not drawn)	2.64	1	1.88	-2.68	46.1*	44.6*	33.1*	2.5	1	i	20.8	i	0.6	-2.02	1227	Lipid droplet cells 6.5 µM=776
COCCCn1c(SCc2nnc(-c3ccccc3)o2)nc2sc3c(c2c1=O)CCC3	0.922	0.1	0.77	-0.016	1.0	1.2	7.7	.	1	i	28.2	i	0.2	-0.57	1556
CCN(CC)c1ccc(N2C(=O)/C(=C\c3cccnc3)SC2=S)cc1	-0.358	-0.21	0.221	0.852	2.5	1.3	6.5	.	1	i	51.6	i	1.5	1.09	1502
O=C(NCCNC(=O)c1cc(OCC(F)(F)F)ccc1OCC(F)(F)F)Nc1ccc(OC(F)(F)F)cc1	1.32	-0.213	0.492	-0.47	2.7	0.8	2.5	.	0.9	i	36.7	i	0.6	0.25	1665
CCN(CC)CCCN1C(=O)C(O)=C(C(=O)c2cc3cccc(OC)c3o2)C1c1ccncc1 (stereo not drawn)	-0.541	-0.316	0.046	0.233	1.8	1.6	15.0	.	1	i	6.8	i	0.9	0.94	1409
CCOc1ccccc1OCC(=O)Nc1ccc(Cl)cc1Cl	-0.19	0.246	-0.842	0.187	4.1	1.1	2.2	.	1.1	i	42.5	i	0.4	-0.65	1584

Part of the list above in order of molecular weight, highest first:
SMILES	Dynein transport	Dynein transport cytoplasmic EGFP	Dynein transport nuclear GR-EGFP	Dynein transport cell count	MT stabilize HCS	MT stabilize HCS Hoechst-high %	MT stabilize HCS cytotoxicity %	Lipid droplet	TNAP activators	T cell modulator	T cell modulator vesicle-bound %	Myeloid diff 2	Myeloid diff 2 GFP+ MAC1+ %	Insulin prom up	Insulin prom up cell count	others
CCN(CC)c1ccc(N2C(=O)/C(=C\c3cccnc3)SC2=S)cc1	-0.358	-0.21	0.221	0.852	2.5	1.3	6.5	.	1	i	51.6	i	1.5	1.09	1502
CC1CC(C)CN(Cc2nc(N)nc(Nc3ccc4ccccc4c3)n2)C1 (stereo not drawn)	2.64	1	1.88	-2.68	46.1*	44.6*	33.1*	2.5	1	i	20.8	i	0.6	-2.02	1227	Lipid droplet cells 6.5 µM=776
CCOc1ccccc1OCC(=O)Nc1ccc(Cl)cc1Cl	-0.19	0.246	-0.842	0.187	4.1	1.1	2.2	.	1.1	i	42.5	i	0.4	-0.65	1584

Pulled one by one from above (three):
SMILES	Dynein transport	Dynein transport cytoplasmic EGFP	Dynein transport nuclear GR-EGFP	Dynein transport cell count	MT stabilize HCS	MT stabilize HCS Hoechst-high %	MT stabilize HCS cytotoxicity %	Lipid droplet	TNAP activators	T cell modulator	T cell modulator vesicle-bound %	Myeloid diff 2	Myeloid diff 2 GFP+ MAC1+ %	Insulin prom up	Insulin prom up cell count	others
O=C(NCCNC(=O)c1cc(OCC(F)(F)F)ccc1OCC(F)(F)F)Nc1ccc(OC(F)(F)F)cc1	1.32	-0.213	0.492	-0.47	2.7	0.8	2.5	.	0.9	i	36.7	i	0.6	0.25	1665
CCOc1ccccc1OCC(=O)Nc1ccc(Cl)cc1Cl	-0.19	0.246	-0.842	0.187	4.1	1.1	2.2	.	1.1	i	42.5	i	0.4	-0.65	1584
CC1CC(C)CN(Cc2nc(N)nc(Nc3ccc4ccccc4c3)n2)C1 (stereo not drawn)	2.64	1	1.88	-2.68	46.1*	44.6*	33.1*	2.5	1	i	20.8	i	0.6	-2.02	1227	Lipid droplet cells 6.5 µM=776
